# TRPML1 ag – qHTS for Agonists of the Human Mucolipin Transient Receptor Potential 1 (TRPML1); TRPML1-expressing cells, Ca2+ dye fluorescence, FDSS; host cell line not named in the record; reference of the full effect not given here; activation, % (concentration not given with the values); hit rate 0.12% among 410,000; AID 624414, 2012; in the data active = activation above about 50%; inconclusive = about 30% to 50%; inactive = below about 30%; also: 0% is about no effect; the text of the record puts the active cut at 80%
# Target sequence (Q9GZU1 whole entry, looked up): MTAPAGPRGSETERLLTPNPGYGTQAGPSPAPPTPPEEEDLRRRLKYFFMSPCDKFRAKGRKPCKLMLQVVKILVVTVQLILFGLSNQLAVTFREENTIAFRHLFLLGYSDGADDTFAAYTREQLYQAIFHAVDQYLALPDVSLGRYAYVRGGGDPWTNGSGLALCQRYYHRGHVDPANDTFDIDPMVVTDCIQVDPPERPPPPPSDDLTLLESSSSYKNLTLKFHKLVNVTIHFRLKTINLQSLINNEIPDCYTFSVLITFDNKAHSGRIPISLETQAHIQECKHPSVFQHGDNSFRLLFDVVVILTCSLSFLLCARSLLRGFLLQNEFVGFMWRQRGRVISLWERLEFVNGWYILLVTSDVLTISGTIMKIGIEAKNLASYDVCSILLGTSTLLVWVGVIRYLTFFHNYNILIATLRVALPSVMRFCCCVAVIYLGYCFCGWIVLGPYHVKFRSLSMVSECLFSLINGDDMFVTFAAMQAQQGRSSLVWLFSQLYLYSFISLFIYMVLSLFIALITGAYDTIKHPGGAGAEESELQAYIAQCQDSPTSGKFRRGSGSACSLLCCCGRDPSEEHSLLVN
#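 Calcium fluorescence on an FDSS kinetic reader gave the read-out. Tet-induced TRPML1-DL cells were plated overnight, dye-loaded (Ca8 with quencher, 45-90 min, room temperature, dark), then read 110 s after compound addition, and again 110 s after 4uM final 54-4 (EC80).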
# TRPML1 blocker – qHTS for Inhibitors of the Human Mucolipin Transient Receptor Potential 1 (TRPML1). TRPML1-inducible cells, Ca2+ dye fluorescence, FDSS; active compounds read low; inhibition of EC80 agonist-evoked calcium signal. Mucolipin-1 (Homo sapiens), Q9GZU1. activity change, negative = inhibition, % (no concentration beside the values). AID 624415, 2012. hit rate 0.02% among 390,000; in the data active means activity change below about -50%; inconclusive means about -30% to -50%; inactive means above about -30%;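 also: stimulus is agonist 54-4 at its EC80 concentration; % is scaled to controls: 0 for no effect and ±100 for the full control effect; compound concentration not given in the record; the text of the record puts the active cut at -80%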
#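 Calcium fluorescence in TRPML1-DL cells induced overnight with Tet: a 110 s read after compound pin addition, then a 110 s antagonist read after challenge with 54-4 at 4 uM final (EC80).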
# Six1-Eya2 inh – qHTS Assay for Inhibitors of the Six1/Eya2 Interaction; Homeobox protein SIX1 (Homo sapiens) + Protein phosphatase EYA2 (Homo sapiens), …; AlphaScreen GST-Six1/His-Eya2 binding, biochemical; active compounds read low; control for the full effect not named in the record; activity change, % (no concentration beside the values); hit rate 0.56% among 360,000; in the data active = activity change below about -65%; inconclusive = about -30% to -65%; inactive = above about -30%; also: % is scaled to controls: 0 for no effect and ±100 for the full control effect
#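 Six1/Eya2 binding was read as AlphaScreen signal after compounds were pinned into GST-Six1 plus His-tagged Eya2 (5X stock 250/500 nM) in pH 8.0 Tris/NaCl/TCEP buffer, beads added, then incubated 1 h, 37 C, dark.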
# PINK1 expr mod – A Quantitative High throughput Screen to Identify Chemical Modulators of PINK1 Expression | hit rate 0.2% among 410,000 | Potency, µM (series often up to 76.6 µM), for the others: at the top dose activation (PINK1 increase), most hits filed as activators | AID 624263, 2012 | PINK1 immunofluorescence, high-content cytometry, 24 h; active = well fitted activation curve with a large enough effect; inconclusive = small, poorly fitted or top-dose-only effect; inactive = flat fitted curve, though single readings scatter; cell line not stated here;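 also: potency is read from the fitted curve at half-maximal effect; % of control where 0% means no effect; nearly all actives have a fitted effect of over 65% in size; a mitochondrial uncoupler was the plate control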
#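 Compound titrations (5 concentrations, 24 h) on a stable cell line; DMSO and CCCP controls. Endpoint: fixed-cell PINK1 immunofluorescence with mitochondrial, cell and nuclear markers, scanned by microplate cytometer.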
# D2 agonist – Beta-Arrestin HTS for Positive Allosteric Modulators of the Human D2 Dopamine Receptor: Agonists; activation, % (test concentration not listed); hit rate 0.084% among 360,000; AID 624465, 2012; DiscoveRx PathHunter D2 beta-arrestin, luminescence, 90 min; 100% = 57 uM dopamine signal; D(2) dopamine receptor (Homo sapiens), P14416; in the data active = activation above about 40%; inconclusive = about 15% to 40%; inactive = below about 15%; also: compound concentration not given in the record; the text of the record calls up to 30% inactive
# Target sequence (P14416 whole entry, looked up): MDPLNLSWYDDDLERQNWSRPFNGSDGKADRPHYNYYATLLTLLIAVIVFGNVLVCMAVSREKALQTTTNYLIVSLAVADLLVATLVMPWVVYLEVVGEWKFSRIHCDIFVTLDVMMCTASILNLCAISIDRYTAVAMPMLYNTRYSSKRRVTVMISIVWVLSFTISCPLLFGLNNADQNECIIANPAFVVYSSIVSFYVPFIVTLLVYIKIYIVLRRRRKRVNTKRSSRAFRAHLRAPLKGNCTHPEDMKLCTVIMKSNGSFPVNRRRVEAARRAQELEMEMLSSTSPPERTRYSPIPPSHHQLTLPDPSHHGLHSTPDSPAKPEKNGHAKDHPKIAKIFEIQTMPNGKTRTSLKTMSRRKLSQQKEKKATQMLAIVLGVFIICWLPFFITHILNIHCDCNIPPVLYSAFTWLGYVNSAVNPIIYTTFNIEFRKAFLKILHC
#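 Agonist mode: compounds alone added to overnight-plated D2 PathHunter cells for 90 min at 37 C, with 57 uM final dopamine (EC100) defining full response. Beta-arrestin recruitment detected by chemiluminescent reagent, read after 1 h at ambient temperature.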
# CtBP-E1A inh – qHTS Assay for Inhibitors of the CtBP/E1A Interaction | hit rate 0.49% among 340,000 | CtBP / adenovirus E1A interaction (AlphaScreen) | AlphaScreen GST-E1A/His-CtBP binding, 1536-well; active compounds read low; control for the full effect not named in the record | activity change, % (test concentration not listed); in the data active means activity change below about -65%; inconclusive means about -30% to -65%; inactive means above about -30%; also: % is scaled to controls: 0 for no effect and ±100 for the full control effect
#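 GST-E1A and His-tagged CtBP (125 nM each as 5X stock) were preincubated with pin-transferred compound for 2 h at 37 °C in the dark, then glutathione donor and nickel acceptor beads were added for 1 h before AlphaScreen reading.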
# The depositor's hits bear a star; ? = inconclusive; nt = no result given; & = joins results of further samples; [ ] = another dose, or the depositor's remark.
SMILES,TRPML1 ag,TRPML1 blocker,Six1-Eya2 inh,PINK1 expr mod,D2 agonist,CtBP-E1A inh
Cc1nnc(NC(=O)c2ccc(S(=O)(=O)N(C)c3ccccc3)cc2)s1,1.9,-5,10,-2.6%,-3.3,-8
CCn1c(SCC(=O)N/N=C/c2cc(OC)c(O)c(OC)c2)nc2ccccc21,1.2,16,-15,0.2%,3.5,-17
Cc1ccc(S(=O)(=O)N2C[C@H]3n4c(=O)ccc(=O)n4C[C@H](OC(=O)NCc4ccco4)[C@@]3(O)C2)cc1,-0.5,1,0,1.8%,1.6,5
COc1ccc(CCNC(C(=O)Nc2cc(C)cc(C)c2)c2ccccc2)cc1 (stereo not given),2.3,2,1,28%,4.0,2
CC(C)CNS(=O)(=O)c1ccc(CCC(=O)N2CCCC2)cc1,-0.2,1,-3,0.6%,1.0,6
Cc1ccc2nc(N3CCN(c4ccccc4F)CC3)c(C=O)c(=O)n2c1,-0.1,9,1,0.8%,-2.6,-5
CCOc1cc(/C=N\NC(=O)OC)ccc1OC(=O)c1ccco1,2.7,-3,5,-1.2%,3.1,-7
CCCNC(=O)c1cc(C2CCCCN2S(C)(=O)=O)on1 (stereo not given),0.5,0,-8,-0.6%,-6.9,0
COc1ccc(NC(=O)c2cc(C)nc3ccccc23)cc1S(=O)(=O)N1CCOCC1,0.4,2,0,1.6%,-2.9,-10
O=C(CCc1ccc(S(=O)(=O)N2CCOCC2)cc1)N/N=C/c1ccc(F)cc1F,-0.5,-20,0,0.4%,1.1,-27
CCCNC(=O)C1(C)CCCN(Cc2ccc(-c3ccccn3)cc2)C1 (stereo not given),0.0,nt,6,3.5%,-3.1,0
CCc1ccc2c(c1)C(c1ccc(N3CCOCC3)cc1)=NNC(c1ccncc1)=N2,-0.1,15,-19,0.6%,-5.7,7
O=C(Cc1ccccc1)c1ccccn1,3.6,2,-78*,12%,-1.1,-5
CN1CCN(Cc2nc3ccccc3c(=O)n2Cc2nc(-c3cccc([N+](=O)[O-])c3)cs2)CC1,2.1,38,-18,-0.5%,8.0,-17
Cn1c2ccccc2c(=O)c2c(=O)n(Cc3ccccc3)c(-c3ccc(F)cc3)nc21,0.9,-1,6,1.2%,0.3,5
O=C(Nc1ccc2oc(-c3ccncc3)nc2c1)c1ccccc1,-0.7,0,3,6.0%,0.9,6
C/C(N)=C(/C#N)C(=O)COC(=O)c1cc(S(=O)(=O)N2CCCCC2)ccc1C,0.2,-4,11,3.8%,-3.2,30
CC(C)CC(=O)Nc1ccc2nc(SCC(=O)N3CCCC3)sc2c1,3.2,12,nt,0.8%,nt,nt
COc1ccccc1C(=O)NCCc1c(C)[nH]c2c(C)ccc(F)c12,-0.1,18,1,6.4%,-4.1,11
CC(C)N=Cc1c(O)[nH]c2ccccc12,0.0,11,-2,1.3%[38.3 µM],-2.5,1
Cc1cc(N2CCC(C)CC2)nc(-c2ccccc2O)n1,nt,nt,19,3.4%,-3.5,7
COc1ccc(N2CCCC2)c(NC(=O)c2ccc(Br)o2)c1,1.1,7,-18,0.4%,1.1,-18
O=C(Nc1ccc(F)cc1)C1CCCN(C2=NS(=O)(=O)c3ccccc32)C1 (stereo not given),-0.1,4,2,-0.7%,-0.6,1
COc1ccc(NC(=O)C2CCCN(S(=O)(=O)c3c(C)[nH]c(=O)[nH]c3=O)C2)cc1OC (stereo not given),1.0&0.1,-3&2,-15,0.0%&2.0%,-0.9,nt
CCOc1ccccc1NC(=O)CCS(=O)(=O)c1ccc(Br)cc1,-1.5,6,17,-0.3%,-5.4,4
O=C(N[C@H]1C/C=C\C[C@@H](CC(=O)N(CCO)Cc2ccccc2)C(=O)NC[C@H](c2ccccc2)OC1=O)OCC1c2ccccc2-c2ccccc21,-0.2,13,-6,0.1%,-6.8,-2
O=C(NC1CCCCCC1)C1CCN(S(=O)(=O)c2cccc3cccnc23)CC1,0.2,-1,7,4.6%,-2.3,-17
COc1ccc2c(c1)C(C)=CC(C)(C)N2S(=O)(=O)c1ccc(C)cc1,2.3,77,3,13%,-0.3,0
COc1cc2c(cc1NC(=O)COC(=O)CNS(=O)(=O)c1ccc(C)cc1)oc1ccccc12,1.4,-2,-8,2.6%,0.9,-2
COCc1cc(=O)[nH]c(SCCS(=O)(=O)c2ccc(Cl)cc2Cl)n1,4.6,-5,-3,-3.1%,-0.8,4
Cc1n[nH]c(C)c1N1C(=O)c2cccc3c(N4CCCCCC4)ccc(c23)C1=O,61*,-8,12,1.3%,1.4,19
CCN(CC)C(=O)c1sc(NC(=O)c2cccnc2)c(C(=O)OC)c1C,-0.6,15,2,1.5%,1.1,-13
COc1cccc(C(C)(O)c2nc(-c3cccc(C#N)c3)cs2)c1 (stereo not given),-0.2,nt,0,0.2%,3.5,1
Cn1c(=O)c2c(nc(NCCNC(=O)c3ccco3)n2Cc2ccccc2)n(C)c1=O,0.0,7,2,0.4%,7.3,-10
Cc1ccc(C(=O)N/N=C/c2sc(=O)n(Cc3cccc(C(=O)O)c3)c2Cl)cc1,-0.2,10,-11,-1.3%,-1.5,-4
COc1ccc(-c2noc(CC(=O)Nc3ccc(C)c(F)c3)n2)cc1,-0.2,-9,nt,0.5%,nt,nt
CCOc1ccc(S(=O)(=O)N2CCCCC2)cc1NC(=O)CC1OC(=O)c2ccccc21 (stereo not given),-0.1,-4,-9,0.8%,-5.3,-2
Cc1cc(-c2ccccc2)nc(N/N=C/c2ccc([N+](=O)[O-])cc2)n1,3.2,39,-26,9.6%,?,?
CCN(CC(=O)Nc1c(F)cccc1F)C(=O)c1cccc(S(=O)(=O)N2CCCCCC2)c1,0.0,-12,6,2.9%,-3.6,nt
COc1ccc(NC(=O)COc2ccc(S(=O)(=O)NC3CCCCC3)cc2)c(OC)c1,1.0,-14,nt,3.2%,nt,nt

# The list goes on; the last 7 above are carried over.
SMILES,TRPML1 ag,TRPML1 blocker,Six1-Eya2 inh,PINK1 expr mod,D2 agonist,CtBP-E1A inh
Cn1c(=O)c2c(nc(NCCNC(=O)c3ccco3)n2Cc2ccccc2)n(C)c1=O,0.0,7,2,0.4%,7.3,-10
Cc1ccc(C(=O)N/N=C/c2sc(=O)n(Cc3cccc(C(=O)O)c3)c2Cl)cc1,-0.2,10,-11,-1.3%,-1.5,-4
COc1ccc(-c2noc(CC(=O)Nc3ccc(C)c(F)c3)n2)cc1,-0.2,-9,nt,0.5%,nt,nt
CCOc1ccc(S(=O)(=O)N2CCCCC2)cc1NC(=O)CC1OC(=O)c2ccccc21 (stereo not given),-0.1,-4,-9,0.8%,-5.3,-2
Cc1cc(-c2ccccc2)nc(N/N=C/c2ccc([N+](=O)[O-])cc2)n1,3.2,39,-26,9.6%,?,?
CCN(CC(=O)Nc1c(F)cccc1F)C(=O)c1cccc(S(=O)(=O)N2CCCCCC2)c1,0.0,-12,6,2.9%,-3.6,nt
COc1ccc(NC(=O)COc2ccc(S(=O)(=O)NC3CCCCC3)cc2)c(OC)c1,1.0,-14,nt,3.2%,nt,nt
CCN(CC(=O)NCc1cccs1)C(=O)c1ccc(C)o1,0.0,14,16,-0.2%,-0.6,-4
CCOC(=O)C(NC(C)=O)C(=O)Nc1ccc(OC)cc1 (stereo not given),0.6,-4,0,0.2%,1.4,0
Cc1nnc(SCc2cn3ccsc3n2)n(N)c1=O,-0.5,1,3,-1.2%,-5.8,-1
CC(C)CNC(=O)COC(=O)Cc1ccc(Cl)cc1,1.0,-4,7,0.7%,5.2,-1
Cc1ccc(N(C(C)C(=O)NCc2ccncc2)S(C)(=O)=O)cc1C (stereo not given),1.3,-7,-9,-3.7%,-1.5,-1
CCOc1ccccc1N(C(=O)c1snc(C(N)=O)c1N)C(C(=O)NCc1ccccc1)c1ccc(O)cc1 (stereo not given),0.0,-2,1,-1.2%,-2.9,-8
Cc1c(Cl)c([N+](=O)[O-])nn1CC(=O)NCc1ccco1,0.4,-16,0,-2.2%,-1.8,-2
CN(CC(=O)Nc1ccc(F)cc1)C(=O)Cn1cnc2ccc([N+](=O)[O-])cc2c1=O,0.1,17,-4,0.6%,-3.0,-2
O=C1N=C(N2CCCC2)S/C1=C\c1ccccc1,0.2,-9,26,1.5%,-1.6,0
O=C(Nc1c(C(=O)N2CCOCC2)oc2ccccc12)c1ccccc1Cl,1.1,7,7,-1.3%,0.0,-7
CN(C(=O)COC(=O)c1cnc(Cl)c(Cl)c1)C1CCS(=O)(=O)C1 (stereo not given),-0.2,9,-5,-1.4%,1.6,0
CC(C)(C)C(=O)Nc1scc(-c2ccc(-c3ccccc3)cc2)c1C(=O)O,1.2,-24,0,4.0%,-3.4,nt
CCCCOC(=O)C1C2C=C[C@]3(CN(CCCOC)C(=O)[C@H]13)O2 (stereo not given in full),-0.4,-2,11,0.3%,1.3,0
CC1(C)C(=O)OC(c2cccn2-c2ccc([N+](=O)[O-])cc2)C2(CCCCC2)C1=O (stereo not given),21,-6,-8,8.3%,0.2,-4
COCCCn1c(-c2ccc(OC)cc2)nc2c1c(=O)[nH]c(=O)n2Cc1ccccc1,6.0,-6,0,5.0%,1.0,9
Cc1ccc2nc(SCC(=O)Nc3cc([N+](=O)[O-])ccc3F)[nH]c2c1,-0.7,57,-14,12%,-4.8,-5
Cc1cccc(-c2noc(-c3cccnc3NCc3ccco3)n2)c1,1.0,-2,nt,6.1%,nt,nt
CC1CN(c2nc3c(c(=O)n(Cc4ccc(Cl)c(Cl)c4)c(=O)n3C)n2C)CC(C)O1 (stereo not given),1.4,37,-17,7.1%,-1.7,-11
CCCCC(=O)Nc1cnc(NC(=O)c2ccco2)cc1C,-0.4,9,-4,0.7%,0.2,-2
S=C(Nc1ccc(Cl)cc1)NC1CCN(Cc2ccccc2)CC1,6.1,-3,-3,10%,0.3,-3
COc1ccc(NC(=O)C2Cc3c(-c4ccccc4Oc4ccccc4)ccnc3O2)cc1OC (stereo not given),1.7,10,-22,1.1%,-3.6,-16

# An excerpt from above in order of the PINK1 expr mod value, falling.
SMILES	TRPML1 blocker	Six1-Eya2 inh	PINK1 expr mod	D2 agonist	CtBP-E1A inh
COc1ccc(N2CCCC2)c(NC(=O)c2ccc(Br)o2)c1	7	-18	0.4%	1.1	-18
CCCCOC(=O)C1C2C=C[C@]3(CN(CCCOC)C(=O)[C@H]13)O2 (stereo not given in full)	-2	11	0.3%	1.3	0
CCOc1cc(/C=N\NC(=O)OC)ccc1OC(=O)c1ccco1	-3	5	-1.2%	3.1	-7

# Assay outcomes as filed in PubChem.
